High-throughput results: PubChem BioAssay, Fisher Drug Discovery Resource Center
NPYLR7 agonist: mosquito NPYLR7 agonism. 270,000 compounds, 0.15% hits. activation, % at 10 µM. HEK293T NPYLR7/Galpha15, GCaMP6s calcium fluorescence; in the data active = activation above about 40%;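 note: 0% = vehicle and 100% = reference agonist at the receptor; some compounds past the cut are filed as inactive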
NPYLR7 agonist max-min: further read-out of NPYLR7 agonist, marked with its call; activation, %; measured here: Max-Min RFU normalised activation; some inactives read as strong as hits;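 span of the calcium signal over five minutes; 0% = vehicle and 100% = native peptide agonist; compound fluorescence can raise it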
Numbers without * were called inactive; & = joins results of further samples. An excerpt; rates above refer to the full screens.

SMILES | NPYLR7 agonist | NPYLR7 agonist max-min
Cc1cc(NC(=O)CC(C)C)nc2c1c(=O)oc1ccccc12 | 1 | 0
COc1ccc(NC(=O)c2sc3nc(-c4ccccc4)cc(C(F)(F)F)c3c2N)cc1 | 1 | 4
CC(C)NC(=O)N(Cc1ccccc1F)CC1CC(c2ccccc2Cl)=NO1 (stereo not drawn) | 18 | 23
COc1cccc(C2=NN(C(=O)CN3CCCC3)C(c3ccc(Cl)cc3)C2)c1 (stereo not drawn) | 15 | 14
O=C1c2ccccc2C(O)N1CCCn1ccnc1C(O)C(F)(F)F (stereo not drawn) | -1 | -1
Cc1cccc(N=Cc2nc(-c3ccc(Cl)cc3)oc2O)c1 | -9 | -14
Cc1ccccc1CN1CCN(c2ncc(C(=O)Nc3cccnc3)s2)C1=O | -4 | -5
O=S(=O)(O)c1nnc2n(Cc3ccccc3)c3ccccc3n12 | -2 | -2
O=C(CNC(=O)C1CC1(c1ccccc1)c1ccccc1)Nc1ccc(Cl)cc1 (stereo not drawn) | -4 | -5
CC(C)(C)c1ccc(C(=O)N=c2c(C#N)cc3c(=O)n4ccccc4nc3n2Cc2ccccc2)cc1 | 1 | 0
COc1ccc(/C=C2\SC(=S)N(C(Cc3ccccc3)C(=O)O)C2=O)cc1 (stereo not drawn) | -9 | -14
Cc1noc(C)c1CN(C(=O)c1cccc(F)c1)c1ccccc1 | 0 | -1
Cn1nnnc1SCC(=O)Nc1cc(F)ccc1F | 9 | 5
Cc1sc2nc(C3CC3)nc(N3CCN(C(=O)NCc4ccccc4)CC3)c2c1C | -8 | 6
CCOCCOC(=O)C1=C(C)N(C)C(=O)NC1c1cc(Cl)c(O)c(OC)c1 (stereo not drawn) | 6 | 4
O=C1/C(=C\c2ccccc2C(F)(F)F)CCc2[nH]c(=O)ccc21 | 1 | 6
CC(C)c1cc(C(C)C)n(C2CCN(C(=O)Cc3c(F)cccc3F)CC2)n1 | 5 | 12
COc1ccc(/C=C2/C(=O)Nc3ccccc32)c(OC)c1 | -5&8 | -5&2
CN1CCN(C(=CC#N)c2ccc(F)cc2)CC1 | 3 | 11
O=C1Nc2cc(F)ccc2C1=O | -2 | -4
CCn1c(C2CCCN(S(=O)(=O)CCc3ccncc3)C2)nn(C)c1=O (stereo not drawn) | 0 | -2
O=C(O)CC(c1ccc(F)cc1F)c1c[nH]c2ccccc12 (stereo not drawn) | -2 | 11
COC(=O)CC(C)C(=O)N1CCC(n2cccc2)CC1 (stereo not drawn) | 11 | 8
COC(=O)C1CN(c2ccc(OC)cc2)N=C1C(C)=O (stereo not drawn) | 11 | 2
CCNc1nc(OCCO)nc(N(C)C)n1 | -4 | -6
NC(=O)CN1c2cccc3cccc(c23)S1(=O)=O | 106* | 100*
O=c1c2c3c(sc2ncn1-n1cccc1)CCCC3 | -8 | -13
COc1ccc(CCN2C(=O)N(CC(C)C)C(=O)C23CCN(Cc2ccco2)CC3)cc1 | -14 | -16
CCOC(=O)Cc1n[nH]c(CNc2ccccc2)n1 | -8 | -17
CCCCc1ccc(NC(=O)c2cc(N)c3c(c2N)C(=O)c2ccccc2C3=O)cc1 | 6 | 3
CC(C)C(=O)N(Cc1c(-c2ccccc2)noc1N1CCCCC1)C1CC1 | 1 | 13
CCCCc1n[nH]c2c1/C(=N/OCC)CC(C)(C)C2 | -1 | 29
C=C(C)Cn1c(SCC(=O)NC2CCCC2)nc2sc3c(c2c1=O)CCCC3 | 7 | 5
CC1CCCN(S(=O)(=O)c2ccc3c(c2)nc(SCC(=O)C(C)(C)C)n3CC2CCCO2)C1 (stereo not drawn) | 4 | 1
CC(C)(C)NCC(O)COc1cccc2[nH]c(=O)[nH]c12 (stereo not drawn) | -2 | -21
COc1ccc(C2NCCc3c2[nH]c2ccccc32)cc1COc1ccccc1F (stereo not drawn) | 7 | 8
CC#CCN1C(=O)C(CCC(=O)N2CCCC2c2ccc3c(c2)OCCO3)NC(=O)c2ccccc21 (stereo not drawn) | -1 | 6
O=C1CCc2c(OCc3ncc(-c4cccc(Cl)c4)o3)cccc21 | 3 | 4
Cc1ccccc1C1(CC(=O)N2CCN(Cc3ccccc3)CC2)CC(=O)N(Cc2ccncc2)C1=O (stereo not drawn) | 21 | 12
CCc1nnc(CN2CCCC(C3(C)NC(=O)N(C(C)C)C3=O)C2)o1 (stereo not drawn) | -7 | -7
Cc1cccc2[nH]c(COCC(=O)N3CCN4CCN(C)CC4C3)nc12 (stereo not drawn) | 11 | 10
OCc1ccnc(-c2ccc(Cl)c(Cl)c2)c1 | 5 | 4
Cc1cccc(CC(C)NC(=O)CCc2nnc(-c3ccccc3)o2)n1 (stereo not drawn) | 6 | 5
Fc1ccc(Oc2ncnc3sc4c(c23)CCCC4)cc1 | -2 | -2
COc1ccc(CCNC(=O)c2ccc(Cl)cc2NS(=O)(=O)c2ccc(OC)cc2)cc1 | -1 | 1
O=S(=O)(c1cccc2cccnc12)N(CCO)CCO | 5 | 6
COc1cccc(-c2nc3ccc(C)cn3c2NC(C)(C)CC(C)(C)C)c1 | 6 | 12
NC(=O)Nc1ccc(CC(=O)OCCn2c(=O)oc3ccccc32)cc1 | 11 | 9
CC(C(=O)Nc1nccs1)N(C)Cc1cn[nH]c1-c1ccc(F)cc1 (stereo not drawn) | 2 | 1
COc1ccccc1CCNC(=O)c1ccccc1N1CCC(NC(=O)Nc2ccc(C)cc2)CC1 | 2 | 8
CCn1cnnc1CNC(=O)N(C)C(C)c1ccccc1F (stereo not drawn) | 2 | -1
CCCCN(CCC(=O)NCc1cccc(C(F)(F)F)c1)c1nc(Cc2ccc(C)cc2)ns1 | -2 | 6
COC(=O)CCCC[C@H]1SC[C@H]2NC(=O)N[C@H]21 | -3 | -5
COc1cc(C(=O)N2CCN(C(=O)c3ccco3)CC2)cc(OC)c1OC | 0 | -1
COC(=O)c1cc(CN2CCN(Cc3ncccc3C)CC2)cs1 | 5 | 3
CC1CCCN(C(=O)COC(=O)C2=COCCO2)C1 (stereo not drawn) | 5 | 12
C=Cc1ccc(CN2C(=O)C(C)Oc3ccc(F)cc32)cc1 (stereo not drawn) | 5 | 1
O=C(CS(=O)Cc1ccc(F)cc1Cl)NCc1ccco1 (stereo not drawn) | -3 | -5
NS(=O)(=O)c1ccc(CCNC(=O)c2ccc3nc(-c4ccccc4)c(-c4ccccc4)nc3c2)cc1 | 12 | 5
CN(C)[C@@H]1C[C@@H](C(=O)O)N(C/C=C/c2ccccc2)C1 | -6 | -6
Continued:
SMILES | NPYLR7 agonist | NPYLR7 agonist max-min
O=C(NC1CC1)c1ccc(-c2cc(-c3ccc(Cl)cc3)[nH]n2)cc1 | 0 | 10
COC(=O)c1cc(NC(=O)CN2CC3(CCCC3)c3cc4c(cc3C2C)OCCO4)cn1C (stereo not drawn) | 12 | 6
Cn1c(=O)c2c(nc(NCCN3CCOCC3)n2C)n(C)c1=O | 0 | 3
Cn1cnnc1CCNC(=O)CSCc1ccccc1Cl | -4 | 1
COc1ccc(N2CCCn3c2nc2c3c(=O)n(C)c(=O)n2C)c(OC)c1 | 18 | 6
O=C(Nc1ccccc1)Nc1cccc(-c2ccc(N3CCCC3)nn2)c1 | 1 | 0
Cn1nnc2c(N3CCC(O)CC3)ncnc21 | 15 | 7
Cc1ccc(C(=O)NC2CCN(C(=O)Cc3cccs3)CC2)s1 | -18 | -24
Cn1cnc([N+](=O)[O-])c1N1CCN(c2ccc(O)cc2)CC1 | 1 | 7
Cc1ccc(C)c(C(=O)COC(=O)c2ccccc2C)c1 | 8 | 10
COc1ccccc1/C=N\NC(=O)CSc1nnc(-c2ccccc2)n1-c1ccccc1 | -5 | -10
COc1ccc(CCNC(=O)c2cc(=O)c(OCc3ccc(F)cc3)c[nH]2)cc1OC | 1 | -3
COc1cccc(C(=O)NCCC(=O)Nc2cnc3n2CCCC3)c1 | 0 | -6
CCc1noc(C)c1C(=O)OC(C(=O)NC(N)=O)C(C)C (stereo not drawn) | 4 | 2
Cc1cccc(C)c1Oc1ncccc1CNC(=O)c1cnc2ccccn12 | 4 | 0
COC(=O)NC1CCN(c2ccccc2C(=O)NCc2cccc(C(F)(F)F)c2)CC1 | -11 | -10
CCc1nc(C2CCCN(Cc3csc(-c4ccoc4)n3)C2)no1 (stereo not drawn) | 6 | 4
Cc1nn(-c2ccc3nncn3n2)c2c1C(c1ccccc1OC(C)C)CC(=O)N2 (stereo not drawn) | -3 | -4
Cc1ccc(NC(=O)c2cc3ccccc3n2C)c(OCC(=O)N(C)C)c1 | -5 | -4
COc1ccccc1-c1nccn1Cc1ccc(N2CCCC2=O)cc1 | -2 | -4
OC(CN(CCN1CCOCC1)Cc1ccc(F)cc1)c1ccccc1 (stereo not drawn) | -4 | 8
Fc1ccccc1Nc1nc(-c2ccco2)nc2ccccc12 | 27 | 28
CC(C)c1nccc(CN2CCCC3(CC2)CN(C)C(=O)O3)n1 (stereo not drawn) | 2 | 4
Fc1ccc(Nc2nc(N3CCOCC3)c3[nH]cnc3n2)cc1 | 2 | 3
CCn1c(C2CCN(c3cc(N4CCOCC4)ncn3)CC2)nn(C)c1=O | 5 | 3
O=C(c1ccc(CSc2nc(Cl)cc(N3CCC4(CC3)OCCO4)n2)cc1)N1CCc2ccccc2C1 | -13 | -2
Cc1ccc(C(c2ccccc2)N2CCN(C(=O)c3cccc(F)c3)CC2)cc1 (stereo not drawn) | 16 | 1
COc1cccc(CNC(=O)c2ccc(Nc3cccc(C(F)(F)F)c3)nc2)c1 | 5 | 5
Cn1nnnc1SCc1ccc(Cl)cc1 | -1 | -2
Cc1oc(-c2ccc(C(F)(F)F)cc2)nc1CN(C)Cc1nc2ccccc2s1 | 8 | 1
O=C(c1ccc[nH]c1=O)N1CCc2[nH]nc(C(c3ccccc3)c3ccccc3)c2C1 | 3 | 2
CNC(=O)CN1CCN(C(=O)c2cn(C(C)C)cc3c(=O)n(-c4ccccc4)nc2-3)CC1 | -6 | -8
CCCC12CN(C(=O)CCCCC3CCSS3)CC1C(=O)NC(=O)N2 (stereo not drawn) | -8 | -14
CCCSc1ncccc1C(=O)Nc1cccc(Oc2ccccc2)c1 | -5 | -13
CC(=O)N1CCC(Oc2ccc(Cl)cc2C(=O)NCCc2cnccn2)CC1 | 3 | 2
O=C(CC1CCS(=O)(=O)C1)NC1CCCCC1 (stereo not drawn) | 0 | -1
CC1CN(C(=O)CSc2nc(-c3ccccc3)cc(=O)[nH]2)CC(C)O1 (stereo not drawn) | -1 | -3
Cc1c(C(=O)NCc2ccc3c(c2)OCCO3)sc(=O)n1Cc1ccccc1F | 3 | 0
O=S1(=O)CCC(N2CCN(Cc3cc(Cl)cc(C4CCCCC4)c3O)CC2)C1 (stereo not drawn) | 0 | 11
Cc1ccc(C)c(S(=O)(=O)N2CCCC2CNC(=O)c2c(F)cccc2F)c1 (stereo not drawn) | 14 | 8
Cc1cc(C)cc(NC(=O)c2c(N)n(/N=C\c3cccnc3)c3nc4ccccc4nc23)c1 | -9 | -10
O=C(CSCc1ccc(Cl)s1)Nc1ccc(Cl)cn1 | 1 | 1
COc1ccc(-n2ncc3c2CC(C)(C)CC3NC(=O)CCN2CCCC2=O)cc1 (stereo not drawn) | 0 | -3
CC(C)c1nc(CNC(=O)Cc2csc(-c3ccccc3)n2)no1 | 21 | 13
O=c1[nH]nc(N2CCOCC2)c(=O)[nH]1 | 16 | 11
O=C(c1cccs1)N1CCCC(OCc2ccc(C(F)(F)F)cc2)C1 (stereo not drawn) | -7 | 1
Cn1ncc2c(NCc3n[nH]c4c3CCC4)nc(C3CCCC3)nc21 | 2 | -4
Cc1nnc(-c2cccc(NC(=O)C3CCN(C(=O)C4=CCCC4)CC3)c2)s1 | -2 | -4
O=C1O[C@@H]2CN(c3ncnc4nc[nH]c34)C[C@@H]2N1CCCN1CCOCC1 | 29 | 12
Cc1cc(C)c(C(=O)N2CCCC(Nc3ccc(C)c(C)c3)C2)o1 (stereo not drawn) | 12 | 6
CCCCN1N=C(C)Cn2c1nc1c2c(=O)n(CCC)c(=O)n1C | 7 | 11
CCOc1ccccc1CN1CCN(Cc2cnn(C)c2)CC1CCO (stereo not drawn) | 20 | 12
